GLA inh pH 4.5: blocks human alpha-galactosidase A at pH 4.5 | purified enzyme, 4-MU-alpha-Gal fluorescence, pH 4.5 | 230,000 tested, under 10 active | activity change, negative = inhibition, % at 105 µM; inconclusive = small, poorly fitted or top-dose-only inhibition, or a rising curve; inactive = flat fitted curve, though single readings scatter; no compound was filed as active;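 also: 0% = full activity with enzyme and -100% = basal without enzyme; dose as in the result columns while the protocol names 77 µM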
miR-21 reporter: raises the signal of a miR-21 reporter | Potency, µM (top dose mostly 38.3 µM), for inactives: top-dose reporter change, positive = more light | HeLa miR-21 FLuc reporter, luciferase, 48 h | 340,000 tested, under 10 active; active = well fitted rising curve with a large enough effect; inconclusive = small, poorly fitted or top-dose-only effect; inactive = no such curve, though single readings can be large or run the other way;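 also: % of control where 0% means no effect; miR-21 action dims this reporter so a rising signal means less miR-21 action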
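HeLa cells endogenously expressing miR-21, stably carrying CMV-driven firefly luciferase with a downstream miR-21 binding site, 2000 cells/well. Titrations up to approximately 40 uM, 48 hours; luciferase luminescence read.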
Rango dissoc inh: inhibitors of RanGTP-induced Rango-importin beta complex dissociation; O95149+P62826; Biochemical FRET Rango-importin beta, RanGTP-induced dissociation; Potency, µM (titrated, usually from 46.1 µM), for inactives: at the highest dose activity change, negative = inhibition; 0.071% of 340,000 active; active means falling FRET ratio curve, often poorly fitted, with flat reads before Ran was added; inconclusive means other falling curves, or compound fluorescence or quenching; inactive means flat or rising ratio curve;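 also: potency is read from the fitted curve at half-maximal effect; % of control where 0% means no effect; nearly all actives have a fitted effect of over 45% in size; -100% = wells without RanGTP and RCC1; the record marks most hits as doubtful in a second field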
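Compounds sat 5 min at room temperature with 0.1 uM Rango biosensor plus 0.25 uM importin beta, then FRET pre-read. RanGTP-RCC1 (0.6 uM Ran, 2mM GTP, 0.2 uM RCC1) added for 45 min, and the CFP/YFP post-read measured blocked complex dissociation.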
Rango complex inh: prevents formation of the Rango-importin beta complex. Potency, µM (highest dose often 92.2 µM), for the others: at the top dose inhibition of complex formation. Rango CFP/YFP FRET sensor + importin beta, 45 min. Q14974. AID 540263. 0.031% of 340,000 active; active = rising FRET ratio curve, often small or poorly fitted; inconclusive = mostly compound fluorescence or quenching in the first reads; inactive = flat curves in all reads;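 also: potency is read from the fitted curve at half-maximal effect; 0% = DMSO wells and 100% = buffer wells lacking importin beta; nearly all actives have a fitted effect of over 15% in size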
Target sequence (Q14974 whole entry, looked up): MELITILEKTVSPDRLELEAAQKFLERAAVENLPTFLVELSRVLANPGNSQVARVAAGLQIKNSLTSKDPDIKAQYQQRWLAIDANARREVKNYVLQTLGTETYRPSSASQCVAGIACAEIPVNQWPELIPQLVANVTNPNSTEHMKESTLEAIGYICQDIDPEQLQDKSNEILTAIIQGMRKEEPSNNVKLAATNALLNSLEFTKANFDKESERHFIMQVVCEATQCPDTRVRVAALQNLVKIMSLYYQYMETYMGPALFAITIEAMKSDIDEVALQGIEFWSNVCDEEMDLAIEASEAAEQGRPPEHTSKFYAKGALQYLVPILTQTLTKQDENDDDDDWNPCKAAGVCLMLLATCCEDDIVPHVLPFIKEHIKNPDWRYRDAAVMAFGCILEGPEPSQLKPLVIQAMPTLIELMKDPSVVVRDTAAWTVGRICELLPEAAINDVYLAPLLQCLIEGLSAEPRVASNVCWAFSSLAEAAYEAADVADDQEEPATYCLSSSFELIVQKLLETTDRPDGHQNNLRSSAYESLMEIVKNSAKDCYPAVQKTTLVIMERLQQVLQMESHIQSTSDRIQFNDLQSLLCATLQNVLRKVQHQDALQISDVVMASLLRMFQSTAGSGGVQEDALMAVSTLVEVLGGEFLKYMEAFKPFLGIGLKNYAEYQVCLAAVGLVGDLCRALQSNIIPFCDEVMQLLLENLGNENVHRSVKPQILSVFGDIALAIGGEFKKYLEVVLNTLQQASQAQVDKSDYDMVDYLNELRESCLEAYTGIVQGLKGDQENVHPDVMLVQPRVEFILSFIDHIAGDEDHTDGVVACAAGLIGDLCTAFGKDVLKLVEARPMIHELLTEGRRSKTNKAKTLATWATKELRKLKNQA
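Inhibition scored from the CFP 486 nm/YFP 530 nm FRET ratio 45 min after adding 0.125 microM importin beta to 50 nM Rango biosensor preincubated 5 min with compound (room temperature, PBS with DTT, Tween-20, BSA). No-importin wells as positive control.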
* marks the source's active call; other numbers are inactive results; ? = inconclusive; nt = no result given; & = joins results of further samples.

entry	molecule	Rango dissoc inh	Rango complex inh	miR-21 reporter	GLA inh pH 4.5
1	Cc1ccc(OCC(=O)Nc2cc(S(=O)(=O)N3CCCCC3)ccc2N2CCN(C)CC2)c(C)c1	14%	-0.9%	nt	nt
2	O=C(/C=C/c1cccc2ccccc12)NCCC1=CCCCC1	1%	-2.1%	-22%	-5
3	Cc1ccccc1N(C(=O)CNC(=O)c1ccco1)C(C(=O)NC1CCCC1)c1ccncc1 (stereo unspecified)	47%	5.3%	-1%	nt
4	CC(C)c1ccc(/C=N/NC(=O)c2cccc(Cl)c2)cc1	-10%	6.1%	-23%	-1
5	Cc1ccccc1N1C(=O)c2ccccc2N2C(=O)c3ccccc3C12 (stereo unspecified)	-1%	1.1%	11%	1
6	COc1ccccc1/C=C1\SC(=O)N(CC(=O)N(C)C2CCS(=O)(=O)C2)C1=O (stereo unspecified)	10%	-1.5%	-2%	nt
7	CCOC(=O)C1=C(C(F)(F)F)Nc2ncnn2C1c1cccc(OC)c1OC (stereo unspecified)	-5%	-2.4%	-1%&-3%	-7
8	CCC1=C(OC(=O)N(CC)CC)N2C(=O)OC(=NCCc3c[nH]c4ccccc34)[C@]2(C)[C@H]2C1=CC[C@H]1C(=O)N(CC)C(=O)[C@H]12	-1%	2.8%	6%	-7&-7
9	CCc1c(C)nc2[nH]nc(NC(=O)C(F)(F)F)n2c1=O	1%	0.0%	-2%	1
10	CNC(=O)c1ccc2snnc2c1	-4%	0.1%	5%	0
11	CCN1CCN(c2ncnc3sc4c(c23)CCC(C)C4)CC1 (stereo unspecified)	1%	1.7%	-17%	nt
12	COc1ccc(Cl)cc1S(=O)(=O)NCc1ccncc1	13%	0.8%	6%	nt
13	Cc1ccc(C)c(S(=O)(=O)Nc2ccc(C(=O)N3CC(C)OC(C)C3)cc2)c1 (stereo unspecified)	-4%	-0.2%	nt	nt
14	CCOc1ccccc1-c1nc(CN2CCCN(C(=O)c3ccco3)CC2)c(C)o1	-1%	-1.9%	-4%	nt
15	O=C(Cc1ccc(Br)cc1)N/N=C/c1cccnc1	4%	-0.4%	-4%	nt
16	COc1ccccc1NC(=O)Nc1nnc(CC(=O)Nc2ccccc2)s1	nt	nt	-36%	7
17	CNc1nc(NC)nc(-n2c(C(F)(F)F)nc3ccccc32)n1	-9%	-0.1%	-6%	8
18	Cc1ccc(C(=O)NCCN2C3=NC[C@H](Cc4ccc(O)cc4)N3C[C@H]2Cc2ccc(O)cc2)cc1Br	5%	4.1%	1%	5
19	Cc1oc2ccc(O)cc2c1C(=O)c1ccc(Br)cc1	-16%	?	nt	nt
20	Cc1ccccc1NC(=O)NNC(=O)CCc1ccccc1	?	0.1%	2%	nt

Sorted by SMILES length (high to low): 15 of the compounds above.
entry	molecule	Rango dissoc inh	Rango complex inh	miR-21 reporter	GLA inh pH 4.5
8	CCC1=C(OC(=O)N(CC)CC)N2C(=O)OC(=NCCc3c[nH]c4ccccc34)[C@]2(C)[C@H]2C1=CC[C@H]1C(=O)N(CC)C(=O)[C@H]12	-1%	2.8%	6%	-7&-7
18	Cc1ccc(C(=O)NCCN2C3=NC[C@H](Cc4ccc(O)cc4)N3C[C@H]2Cc2ccc(O)cc2)cc1Br	5%	4.1%	1%	5
1	Cc1ccc(OCC(=O)Nc2cc(S(=O)(=O)N3CCCCC3)ccc2N2CCN(C)CC2)c(C)c1	14%	-0.9%	nt	nt
3	Cc1ccccc1N(C(=O)CNC(=O)c1ccco1)C(C(=O)NC1CCCC1)c1ccncc1 (stereo unspecified)	47%	5.3%	-1%	nt
6	COc1ccccc1/C=C1\SC(=O)N(CC(=O)N(C)C2CCS(=O)(=O)C2)C1=O (stereo unspecified)	10%	-1.5%	-2%	nt
7	CCOC(=O)C1=C(C(F)(F)F)Nc2ncnn2C1c1cccc(OC)c1OC (stereo unspecified)	-5%	-2.4%	-1%&-3%	-7
5	Cc1ccccc1N1C(=O)c2ccccc2N2C(=O)c3ccccc3C12 (stereo unspecified)	-1%	1.1%	11%	1
16	COc1ccccc1NC(=O)Nc1nnc(CC(=O)Nc2ccccc2)s1	nt	nt	-36%	7
9	CCc1c(C)nc2[nH]nc(NC(=O)C(F)(F)F)n2c1=O	1%	0.0%	-2%	1
4	CC(C)c1ccc(/C=N/NC(=O)c2cccc(Cl)c2)cc1	-10%	6.1%	-23%	-1
11	CCN1CCN(c2ncnc3sc4c(c23)CCC(C)C4)CC1 (stereo unspecified)	1%	1.7%	-17%	nt
19	Cc1oc2ccc(O)cc2c1C(=O)c1ccc(Br)cc1	-16%	?	nt	nt
12	COc1ccc(Cl)cc1S(=O)(=O)NCc1ccncc1	13%	0.8%	6%	nt
20	Cc1ccccc1NC(=O)NNC(=O)CCc1ccccc1	?	0.1%	2%	nt
10	CNC(=O)c1ccc2snnc2c1	-4%	0.1%	5%	0

(more compounds)
entry	molecule	Rango dissoc inh	Rango complex inh	miR-21 reporter	GLA inh pH 4.5
21	Cc1nn(C)c(C(=O)Nc2ccn(C34CC5CC(CC(C5)C3)C4)n2)c1[N+](=O)[O-]	-12%	-2.4%	-24%	-7
22	NC(=O)c1ccsc1NC(=O)CS(=O)(=O)c1ccc(F)cc1	26%	-0.1%	nt	nt
23	Cc1cccc(C)c1NC(=O)C1CC2CCC1C2 (stereo unspecified)	6%	0.1%	nt	nt
24	CCOC(=O)C1CCN(C(=O)c2ccccc2NS(=O)(=O)c2ccc(C)cc2)CC1	1%	1.2%	-2%	nt
25	CCOC(=O)c1ccc(NC(=O)N2CCN(C(=O)C3CCCO3)CC2)cc1 (stereo unspecified)	4%	-2.4%	0%	5
26	Cc1ccc2c(c1)c1c(n2CC(O)Cn2c(C)nc3ccccc32)/C(=N\O)CCC1 (stereo unspecified)	-2%	-3.6%	7%	-8
27	Cc1cccn2c(=O)c(C=O)c(N3CCN(c4ccc(F)cc4)CC3)nc12	2%	0.5%	-3%	-8
28	COc1cccc(OCCOc2ccccc2[N+](=O)[O-])c1	21%	-0.9%	nt	nt
29	COc1ccc(/C=N\NC(=S)SCN2C(=O)C3CCC(C)(C2=O)C3(C)C)cc1 (stereo unspecified)	-12%	2.1%	nt	nt
30	O=C(NCCc1ccccc1)c1ccc(NC(=O)C2CC2)cc1	18%	-1.2%	nt	nt
31	COc1cccc(/C=C/C(=O)NCc2ccc(S(N)(=O)=O)cc2)c1	24%	2.9%	-8%	-3
32	COc1ccc(C(=O)NC2CCCN(Cc3ccccc3F)C2)c(OC)c1OC (stereo unspecified)	-17%	-2.4%	4%	nt
33	CCCc1nc(C)c2c(=O)[nH]c(-c3cc(S(=O)(=O)N4CCN(CC)CC4)ccc3OCC)nn12	34%	-0.8%	nt	nt
34	COc1ccc([C@@H]2CC=C(C(=O)O)[C@H](c3ccc(Br)cc3)N2S(=O)(=O)c2ccccc2C)cc1	0%	0.4%	nt	nt
35	Cc1csc(NC(=O)c2cnc3ccccc3n2)n1	-8%	3.3%	15%	nt
36	CC(=O)Nc1ccc(NC(=O)COC(=O)Cn2cnc3ccccc32)cc1	8%	-1.9%	nt	nt
37	COc1ccc(C(=O)N2CCN(C(=O)Cc3ccccc3)CC2)cc1OC	2%	6.4%	-9%	3
38	COc1ccc(-c2noc(COC(=O)c3ccco3)n2)cc1OC	-10%	-2.2%	nt	nt
39	Cc1nc(C)c(-c2ccc(SCC(=O)Nc3cccc(Cl)c3C)nn2)s1	-10%	-3.8%	0%	nt
40	S=C(NCC1CCCO1)NC1CCCC1 (stereo unspecified)	5%	6.9%	-4%	4
41	CCCCn1c(N)c(N(CCOC)C(=O)c2cc(S(=O)(=O)N3CCOCC3)ccc2F)c(=O)[nH]c1=O	2%	?	nt	nt
42	CCOc1cc(N2CCOCC2)c(OCC)cc1NC(=O)COC(=O)/C=C/c1ccc(OC(F)F)cc1	1%	3.3%	nt	nt
43	CCN(CC)CCCCOc1ccccc1OC	1%	2.7%	-2%	4
44	COc1ccc(CCCC(=O)NC(C)c2ccccc2)cc1 (stereo unspecified)	3%	-0.3%	-3%	8
45	CCCCOc1ccc(C(=O)Nc2ccc(S(=O)(=O)Nc3cc(C)on3)cc2)cc1OC	-5%	0.6%	-8%	2
46	O=C(CCS(=O)(=O)c1ccc(Br)cc1)NCc1ccc(F)cc1	13%	-0.8%	-1%	nt
47	CC(OC(=O)/C=C/c1cccs1)C(=O)NC1CCCCC1C (stereo unspecified)	4%	2.1%	2%	nt
48	COCC(=O)Nc1nc2ccc(C)cc2s1	-4%	0.2%	-25%	0
49	[O-][n+]1cccc2ncc3cscc3c21	2%	3.3%	-9%	-1
50	O=C(Nc1ccccc1)C1=C[C@H](c2ccccc2)C[C@H](OCCCCO)O1	-13%	-3.1%	nt	nt
51	COC(=O)C1=C(O)/C(=C\c2cc(C)n(-c3ccccc3C)c2C)N=C1C	?	?	-2%	5
52	NNC(=O)c1csc(-c2ccccc2)n1	2%	0.7%	-3%	-5
53	Cc1ccc(C)c(N2CCN(CC3CC=CCC3)CC2)c1 (stereo unspecified)	1%	-2.0%	0%	4
54	O=C(CNC(=O)c1cccnc1)N/N=C/c1cccnc1	-8%	0.0%	-1%	nt
55	CS(=O)(=O)c1ccccc1C(=O)Nc1ccc(S(=O)(=O)N2CCCC2)cc1	0%	-0.8%	nt	nt
56	CCOC(=O)c1ccc(NC(=O)NC2CC3CCC(C2)N3Cc2nnnn2C(C)(C)C)cc1 (stereo unspecified)	0%	-1.1%	2%	-1
57	Cn1c(=O)c([N+](=O)[O-])c(NCC2CCCO2)c2ccccc21 (stereo unspecified)	3%	0.5%	-3%	4
58	C=C(C)c1cccc(C(C)(C)NC(=O)NC2CCCC2)c1	1%	0.9%	0%	0
59	O=C(Nc1cn(-c2ccccc2)nc1-c1ccc(Cl)cc1)c1ccccc1	-5%	-3.6%	0%	2
60	CC(Oc1ccc(Cl)cc1Cl)c1ccn[nH]1 (stereo unspecified)	?	0.1%	-14%	-3
61	CCN(CC)CCCNC(=O)C1c2ccccc2C(=O)N(CCOC)C1c1ccc(F)cc1 (stereo unspecified)	-8%	0.7%	2%	3
62	CCCCNC(=O)COC(=O)CCC(=O)c1ccc(Cl)cc1	?	-3.2%	0%	2
63	C[n+]1ccc(C(=O)NCCC[N+](C)(C)C)cc1/C=N/O	1%	0.6%	1%	-4
64	COc1ccccc1N=Nc1ccc(O)c2ncccc12	-20%	0.6%	4%	nt
65	COc1ccccc1NC(=O)c1cccc(S(=O)(=O)N2CCN(Cc3ccccc3)CC2)c1	-9%	4.6%	nt	nt
66	CNC(CC(=O)c1ccc([N+](=O)[O-])cc1)C(Cl)(Cl)Cl (stereo unspecified)	-11%	-0.7%	-1%	-2
67	CCCCCCCNC(=O)c1cc(-c2ccncc2)nc2ccccc12	26%	5.1%	15%	nt
68	O=C(Nc1ccccc1Cl)N1CCN(c2ncccn2)CC1	11%	-0.5%	-13%	7
69	Cc1ccc(/C([O-])=C(/C(=S)NCc2ccc3c(c2)OCO3)[n+]2ccc(N(C)C)cc2)c(C)c1	-10%	-1.4%	-8%	3
70	COc1ccc2c(c1)C(c1ccc(N3CCOCC3)cc1)=NNC(c1cccnc1)=N2	14%	5.0%	-10%	-16
71	CNC(=O)C(C#N)(Cc1cc(C(C)=O)ccc1OC)Cc1cc(C(C)=O)ccc1OC	-1%	-0.1%	1%	nt
72	C=CCOc1cccc(C2C(C(=O)c3ccco3)=C(O)C(=O)N2Cc2ccco2)c1 (stereo unspecified)	1%	-2.8%	-19%	nt
73	CC(=O)N=c1sccn1CC(O)c1ccc(Br)cc1 (stereo unspecified)	-2%	0.6%	-2%	nt

Screening results (PubChem BioAssay)

Only part of the results is shown; rates above refer to the full screens.
